PINK1 expr mod = A Quantitative High throughput Screen to Identify Chemical Modulators of PINK1 Expression; PINK1 immunofluorescence, high-content cytometry, 24 h; Potency, µM (top dose mostly 76.6 µM), inactives show top-dose activation (PINK1 increase), most hits filed as activators; hit rate 0.2% among 410,000; AID 624263, 2012; active = well fitted activation curve with a large enough effect; inconclusive = small, poorly fitted or top-dose-only effect; inactive = flat fitted curve, though single readings scatter; cell line not stated here;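 note: potency is the fitted concentration of half-maximal effect; % of control where 0% means no effect; nearly all actives have a fitted effect of over 65% in size; a mitochondrial uncoupler was the plate control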
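Measures PINK1 amount and localization on or inside mitochondria by immunofluorescence. Stable cells get compounds at 5 concentrations for 24 hours before fixation and staining; CCCP controls included.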
Sfp PPTase inh = qHTS Assay for Inhibitors of Bacillus subtilis Sfp phosphopantetheinyl transferase (PPTase). Biochemical Sfp PPTase activity, qHTS. hit rate 3.5% among 310,000. Potency, µM, without a hit: max response, negative = inhibition, usual class: inhibitors; active = well fitted inhibition curve with a large enough effect; inconclusive = small, poorly fitted or top-dose-only effect, or another doubt; inactive = no such curve, though single readings can be large or run the other way;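 note: the enzyme is Sfp with the accession as filed and its product quenches rhodamine fluorescence; potency is the fitted concentration of half-maximal effect; 0% = enzyme reaction without inhibitor and -100% = no enzyme wells; top concentration of the series not given in the record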
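Buffer: 50 mM Hepes-Na pH 7.6, 10 mM MgCl2, 0.01% Nonidet P-40, 0.01% BSA. Enzyme 15 nM, pre-exposed to compound 15 min; substrates then added and fluorescence change tracked over 30 min.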
ClpP mod = qHTS Assay for Activators of ClpP; purified B. subtilis ClpP, FRET peptide cleavage, 20 min; AID 651965, 2013; Potency, µM (titrated, usually from 57.5 µM), inactives show at the highest dose activity change, negative = active; hit rate 1.9% among 340,000; active = well fitted falling curve with a large enough effect; inconclusive = small, poorly fitted or top-dose-only effect; inactive = no such curve, though single readings can be large or run the other way; note: potency is the fitted concentration of half-maximal effect; the source files actives as falling curves though it sought activators and does not explain the sign; nearly all actives have a fitted effect of over 65% in size; many hits overshoot -100%
Target sequence (P80244 whole entry, looked up): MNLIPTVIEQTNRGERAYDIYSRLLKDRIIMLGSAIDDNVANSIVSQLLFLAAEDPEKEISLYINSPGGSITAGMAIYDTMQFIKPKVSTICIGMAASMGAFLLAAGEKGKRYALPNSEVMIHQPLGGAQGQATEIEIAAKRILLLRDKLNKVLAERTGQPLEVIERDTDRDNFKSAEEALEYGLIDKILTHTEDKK
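FRET quenching reversal measured ClpP activation: 10 microg/mL B. subtilis ClpP at pH 8 with the FRET-FV decapeptide, read at 430 nm after 320 nm excitation. The 20-min minus 0-min signal was scaled between DMSO/no-enzyme wells and ADEP (5.8 microM final).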
Menin MLL FP FL = qHTS Assay for Inhibitors Targeting the Menin-MLL Interaction in MLL Related Leukemias: Competition With Fluorescein Labeled MLL-derived Peptide. Fluorescence polarization, fluorescein-MLL peptide displacement from menin. FP activity change, % at 61.4 µM. 290,000 tested, under 10 active; inconclusive = falling polarisation curve, or a change in total fluorescence; inactive = total fluorescence flat and polarisation flat or rising; no compound was filed as active; the % refers to the polarisation; negative = inhibition;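 note: % of control where 0% means no effect; inhibitors lower the polarisation; unlabelled MLL peptide was the positive control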
gsp ag = qHTS for Agonist of gsp, the Etiologic Mutation Responsible for Fibrous Dysplasia/McCune-Albright Syndrome: qHTS. gsp mutant cells, cAMP HTRF, 30 min; control for the full effect not named in the record. Potency, µM (doses to about 76.9 µM), for the others: at the top dose activation (cAMP increase), actives largely listed as activators. hit rate 0.13% among 340,000. AID 624287, 2012; active = well fitted activation curve with a large enough effect; inconclusive = small, poorly fitted or top-dose-only effect, or another doubt; inactive = no such curve, though single readings can be large or run the other way; cell line not stated here;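 note: phosphodiesterase inhibitor Ro 20-1724 added with compounds to block cAMP breakdown; potency is the fitted concentration of half-maximal effect; nearly all actives have a fitted effect of over 60% in size; about a fifth of the inactives were tested at one dose only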
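Cells in DMEM/10% FBS with G418 were pretreated with compounds in DMSO plus […] (300 uM stock) for 30 min at 37C. cAMP was measured by HTRF (cAMP-d2 plus anti-cAMP antibody-K) after 30 min at room temperature.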
D2 ag = Beta-Arrestin HTS for Positive Allosteric Modulators of the Human D2 Dopamine Receptor: Agonists; D(2) dopamine receptor (Homo sapiens), P14416; DiscoveRx PathHunter D2 beta-arrestin, luminescence, 90 min; 100% = 57 uM dopamine signal; activation, % (no concentration beside the values); hit rate 0.084% among 360,000; in the data active = activation above about 40%; inconclusive = about 15% to 40%; inactive = below about 15%; note: compound concentration not given in the record; the text of the record calls up to 30% inactive
Target sequence (P14416 whole entry, looked up): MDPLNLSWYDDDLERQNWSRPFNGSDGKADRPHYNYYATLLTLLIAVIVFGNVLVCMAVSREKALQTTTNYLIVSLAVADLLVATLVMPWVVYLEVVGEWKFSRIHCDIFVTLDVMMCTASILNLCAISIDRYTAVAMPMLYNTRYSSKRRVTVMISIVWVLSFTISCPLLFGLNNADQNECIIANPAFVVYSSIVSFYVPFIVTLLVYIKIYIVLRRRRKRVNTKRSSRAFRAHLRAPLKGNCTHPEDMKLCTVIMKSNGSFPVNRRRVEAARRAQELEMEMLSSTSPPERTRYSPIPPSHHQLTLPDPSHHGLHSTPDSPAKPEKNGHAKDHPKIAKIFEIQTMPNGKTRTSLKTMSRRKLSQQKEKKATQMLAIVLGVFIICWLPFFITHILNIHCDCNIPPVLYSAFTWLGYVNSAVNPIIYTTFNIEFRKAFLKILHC
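Agonist mode: compounds alone added to overnight-plated D2 PathHunter cells for 90 min at 37 C, with 57 uM final dopamine (EC100) defining full response. Beta-arrestin recruitment detected by chemiluminescent reagent, read after 1 h at ambient temperature.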
gsp antagonist = qHTS for Antagonists of gsp, the Etiologic Mutation Responsible for Fibrous Dysplasia/McCune-Albright Syndrome: qHTS | gsp-mutant cells, cAMP HTRF, 30 min; control for the full effect not named in the record | Potency, µM (doses to about 76.9 µM), inactives show top-dose activity change, negative = inhibition, most hits filed as inhibitors | hit rate 0.4% among 340,000; active = falling curve of any shape with a large fitted effect; inconclusive = falling curve, mostly with a smaller effect; inactive = flat or rising curve; cell line not stated here;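 note: intracellular cAMP measured with PDE inhibitor Ro 20-1724 present during compound exposure; potency is the fitted concentration of half-maximal effect; % is set by controls: 0 for no effect and ±100 for the full control effect; nearly all actives have a fitted effect of over 65% in size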
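G418-selected cells were plated in DMEM/10% FBS for 16-24 h at 37C, then treated with compounds plus the PDE inhibitor […] (300 uM solution added) for 30 min at 37C. Intracellular cAMP was measured by HTRF after 30 min lysis at room temperature.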
Numbers without * were called inactive; ? = inconclusive; · = not tested or not shown; & = joins results of further samples; [ ] = remark or other dose. Rows were taken by chance; any-hit rate near 5.1%.

SMILES	PINK1 expr mod	Sfp PPTase inh	ClpP mod	Menin MLL FP FL	gsp ag	D2 ag	gsp antagonist
O=C(Nc1nc2c(Br)cc(Br)cc2c(=O)s1)C1CCC1	2.3%	7%	-2.7%	-1.0	?	3.6	4%
CCOC(=O)c1sc(NC(=O)CCCn2nc([N+](=O)[O-])cc2C)c(C(=O)OCC)c1C	-1.0%	12%	?	3.7	-8%[15.4 µM]	-2.8	-9%
COC(=O)C1=C(C(=O)OC)C(c2cc(Br)ccc2O)c2sc(=O)[nH]c2S1 (configuration not stated)	0.3%	20µM*	·	?	-16%[15.4 µM]	-2.9	3%
O=C1C=CC(=O)N1c1ccc(OC(F)F)cc1	-2.8%	?	-7.4%	0.6	-19%	-9.7	-30%
CC(C)(C)c1ccc(S(=O)(=O)N2CCC(c3nc4ccc(Cl)cc4[nH]3)CC2)cc1	1.9%[38.3 µM]	30%	-1.1%	-2.5	0%	0.8	-4%
CC(NC(=O)c1ccc(F)cc1)c1ccccc1 (configuration not stated)	1.1%	7%	-0.2%	3.4	3%	-1.5	-2%
COc1ccc(CCNC(=O)C/C(C)=N/NC(=O)c2ccc([N+](=O)[O-])cc2Cl)cc1OC	0.6%	4%	·	5.1	-43%[15.4 µM]	3.1	-1%
CCCn1c(=S)[nH]c2cc(C(=O)N3CCN(c4ccccc4OC)CC3)ccc2c1=O	4.5%[38.3 µM]	-4%	-1.7%	-2.0	14%	-1.5	-9%
Cc1[nH]c2ccccc2c1/C=C/C(=O)c1ccccc1	2.8%	-4%	1.7%	?	-10%[15.4 µM]	-6.1	?
CCCCc1cc(=O)oc2cc(C)cc(OC(C)C(=O)NC(Cc3c[nH]c4ccc(O)cc34)C(=O)O)c12 (configuration not stated)	-0.7%	-9%	?	0.6	·	-3.8	0%
CC(=O)NS(=O)(=O)c1ccc(NC(=O)CCC(=O)Oc2ccc(C)cc2)cc1	0.0%	16%	1.8%	-1.1	3%	-4.2	21%
Cc1ccc(N(CC(=O)NC2CCCC2)C(=O)CNC(=O)c2cccs2)c(C)c1	-2.3%	12%	·	0.3	-10%[15.4 µM]	-0.4	4%
O=C(CC1C(=O)N(c2ccccc2)C(=O)N1Cc1ccco1)Nc1ccccc1 (configuration not stated)	0.7%	10%	·	-1.5	16%[15.4 µM]	-1.1	-4%
O=C(NCC1CCCCC1)c1ccc2nc([C@@H]3O[C@H](CO)[C@@H](O)[C@H]3O)[nH]c2c1	2.4%	·	-0.6%	·	·	-6.2	·
COc1ccc(-c2cc3c(=O)n(CC(=O)NC4CCN(Cc5ccccc5)CC4)ncn3n2)cc1	-0.4%	11%	-2.0%	0.0	-7%	-0.8	9%
CCCCCCn1cc(C(=O)O)c(=O)c2cc(F)c(N3CCN(C)CC3)cc21	2.6%	12%	-16%	0.3	8%[15.4 µM]	0.2	2%
Cc1ccc(S(=O)(=O)N(C)CC(=O)NNC(=O)CCNS(=O)(=O)c2cccc(C)c2)cc1	-1.2%	·	-0.3%	·	?	-1.8	4%
Cc1cccc(C)c1NC(=O)C(=O)c1cn(C)c2ccccc12	5.1%	2%	·	0.3	10%	-0.7	-1%
COc1ccc(CNC(=O)c2c[nH]c3ccccc3c2=O)cc1	-0.3%	23%	-0.8%	-0.1	10%[15.4 µM]	-0.9	-3%
COc1ccc(NC(=O)c2cc([N+](=O)[O-])ccc2N2CCCCC2)cc1	9.8%	-2%	·	-3.3	-18%	-1.3	-19%
O=c1cc(CN2CCc3ccccc32)c2ccc(O)cc2o1	3.9%	2%	·	1.7	6%	0.5	-5%
COC1=CC(=O)CC(C)C12Oc1c(Cl)c(OC)cc(OC)c1C2=O (configuration not stated)	11%	13%&-8%	3.6%	-0.2&-5.0	·	3.2	1%
O=C(c1ccccc1)n1ccc2ccccc21	15%	0%	-1.0%	3.5	2%	-1.6	0%
CCCC(=O)Nc1cc2c3c(c1)CC(=O)N3CCC2	0.5%	1%	0.4%	-2.0	-1%	1.9	10%
O=C(c1nc2ccccn2c1CN1CCN(c2ccccc2O)CC1)N1CCCC1	-3.1%	-3%	-0.2%	0.2	10%[15.4 µM]	-4.6	6%
O=C(Cn1nnc(-c2cc(C(F)(F)F)cc(C(F)(F)F)c2)n1)NNC(=S)Nc1ccc(Cl)cc1	3.3%	24%	-0.7%	1.8	-38%[inhibitor]	-6.6	-3%
COc1ccc(N2C(N)=NC(N)=NC23CCCC3)cc1	0.1%	7%	-0.3%	3.0	?	2.5	5%
O=C(Cn1c(=O)sc2ccccc21)NCc1ccco1	-0.5%	19%	0.3%	0.7	6%	-2.5	-29%
O=C(c1ccco1)N1N=C(c2ccncc2)CC1(O)C(F)(F)F (configuration not stated)	2.8%	-10%	·	0.5	-26%	5.2	10%
CCN1C(=O)c2cccc3c(NC(=O)C(C)(C)C)ccc1c23	-2.1%	10%	-1.7%	0.2	?	-1.7	0%
Cc1ccc(C(=O)OCC(=O)N2CCc3ccccc32)cc1	6.4%	14%	-2.4%	2.0	?	-1.3	11%
Nc1nc(N2CCN(c3ccccc3)CC2)n[nH]1	0.9%	-1%	·	2.3	11%[15.4 µM]	-6.0	11%
CCCCOc1ccc(N2C(=O)CC(N(O)c3ccccc3)C2=O)cc1 (configuration not stated)	0.5%	12%	-0.2%	-0.1	-32%[inhibitor]	6.0	4%
O=C(O)C(Oc1ccc(Cl)cc1)c1ccc(Cl)cc1 (configuration not stated)	-2.3%	·	·	·	-25%	2.7	-8%
OCCNCCOCCOc1ccccc1-c1ccccc1	1.5%	?	-0.4%	·	0%[15.4 µM]	-4.0	12%
Cc1ccc(Nc2c(-c3cccnc3)nc3ccc(Br)cn23)cc1	8.4%&1.4%	20%	-2.2%&-2.1%	2.3	20%	-3.1	-2%
CC(CC(=O)O)CC(=O)Nc1cccc([N+](=O)[O-])c1 (configuration not stated)	0.4%	13%	·	0.2	-3%[15.4 µM]	-5.0	·
NC(=O)CC[C@H](NC(=O)c1ccc(F)cc1)C(=O)N1CCN(Cc2ccc3c(c2)OCO3)CC1	0.5%	·	-0.8%	·	9%[15.4 µM]	-3.3	-1%
C[C@@H]1CN([C@H](C)CO)C(=O)CCCn2nncc2CO[C@@H]1CN(C)S(=O)(=O)c1ccc(-n2cccn2)cc1	3.6%	·	-0.1%	·	-2%	0.4	·
COc1ccc([C@@H]2C[C@H]3CN(Cc4ccccc4OC)C(=O)[C@]34CCCN24)cc1C	-1.3%	2%	-1.0%	1.6	-32%[inhibitor]	-3.8	-3%
CCOC(=O)/C(C#N)=C/c1cccc([N+](=O)[O-])c1	0.0%	-3%	1.2%	-0.9	-17%	4.4	3%
CC(Oc1ccc(Cl)cc1Cl)C(=O)Nc1cccnc1 (configuration not stated)	0.3%	-8%	5.6%	0.4	5%	-2.9	?
CCc1c(C)nc2nc(SCc3ccccc3)[nH]n2c1=O	3.0%	1%	·	4.1	-7%	5.6	-10%
CCCCCc1ccc(-c2cn(CCCOCc3ccccc3)nn2)cc1	3.9%	-5%	3.7%&0.3%	0.7	·	0.1	9%
CSc1ncc(CN2CCN(CCC(C)C)C(CCO)C2)cn1 (configuration not stated)	-1.1%	5%	·	2.3	18%	0.2	12%
CCOc1ccc(N(CC(=O)Nc2cc(OC)cc(OC)c2)S(=O)(=O)c2c(C)[nH]c(=O)[nH]c2=O)cc1	1.2%&2.3%	11%	-1.5%&-0.4%	·	-50%[inhibitor]	2.6	2%
CC(C)[C@H]1COCCS(=O)(=O)N1Cc1ccccc1F	0.0%	·	-0.3%	·	-11%	-2.6	12%
COC(=O)c1ccc(OCc2nn[nH]n2)cc1	-0.8%	17%	-1.7%	-1.3	7%	-3.5	-1%
COC(=O)C1=C(O)/C(=C\c2ccc(CNS(=O)(=O)c3ccc(Cl)cc3)o2)N=C1C	1.0%	35µM*	-2.2%	?	-5%	-1.3	-4%
CCOc1cc(C(=O)N2CCC(CC3CC(c4cccc(Br)c4)=NO3)(C(=O)NCC3CCCCC3)CC2)cc(OCC)c1OCC (configuration not stated)	1.0%	18%	-0.9%	0.5	-28%	-1.5	-13%

(further entries)
SMILES	PINK1 expr mod	Sfp PPTase inh	ClpP mod	Menin MLL FP FL	gsp ag	D2 ag	gsp antagonist
O=C(NCCCn1ccnc1)c1cc(S(=O)(=O)N2CCOCC2)ccc1F	-3.4%	18%	·	?	14%	1.7	13%
COC(=O)c1ccc(NS(=O)(=O)c2cc3c4c(c2)CCC(=O)N4CCC3)cc1	7.9%	·	-2.4%	·	8%	3.9	-5%
FC(F)Oc1ccc(C2N=C(c3ccccc3)NO2)cc1 (configuration not stated)	1.1%	8%	-6.5%	?	-12%	5.5	3%
CCOC(=O)c1cc(-c2ccc(OC)cc2)n[nH]1	1.4%	5%	-1.0%	2.3	-7%	1.6	-17%
COc1ccc(-n2ncc3c(=O)n(CC(C)=O)cnc32)cc1	-0.5%	6%	·	-6.5	1%	-4.3	9%
COc1cccc(N2CCN(Cc3ccco3)CC2)c1	2.0%	-28%	0.8%	-3.1	6%[15.4 µM]	2.5	3%
CCC(C)NC(=O)C1CCC(CNS(=O)(=O)c2ccc3c(c2)N(C(C)=O)CCO3)CC1 (configuration not stated)	0.9%	31%[activator]	-1.8%	·	39%	-2.8	12%
CC(=O)c1cccc(CN2CCN(C3CCCC3)C(CCO)C2)c1 (configuration not stated)	-0.5%	7%	0.6%	-3.4	?	-3.4	10%
CC(C)(C)c1cc(=O)[nH]c(SCc2ccccc2)n1	2.6%	12%	·	-2.9	-8%[15.4 µM]	-4.1	-1%
O=C(NCCC(=O)N(Cc1ccco1)Cc1cccs1)c1ccc([N+](=O)[O-])cc1	0.1%	·	-2.9%	·	16%	-0.2	4%

Source: PubChem (National Center for Advancing Translational Sciences (NCATS))
